Screening data (PubChem)
PrP 5UTR inh – suppresses PrP 5' UTR mRNA reporter expression. cell-based PrP 5' UTR mRNA reporter, plate reader. inhibition, % (test concentration not listed). actives 0.35% (n = 340,000). AID 488862;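 active = every replicate at 50% or more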;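 also: 0 = median of the neutral control wells; tested in H4 reporter cells; numbers are from one replicate; inactives centre near -14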
Mtb hypoxia inh – Mtb hypoxia fluorescent reporter inhibition; fluorescence inhibition, % (concentration not given with the values); M. tuberculosis hypoxia-regulated fluorescent reporter, fluorescence; actives 0.1% (n = 300,000); AID 1159583;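 active = 35 to 45% if threefold the growth effect, above 45% if 1.5-fold the growth effect; inactive = the rest, general growth blockers included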;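 also: wells of about 50 µL received 100 nL stock; 0% = vehicle wells and 100% = reference inhibitor wells; whole bacteria with a GFP reporter of the hypoxia response; strong numbers were not always called active; many hits fall short of the cut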
BJeLR viability – kills HRASV12-expressing BJeLR cells; inhibition, % (concentration not given with the values); AID 1554; BJeLR (HRASV12) viability, CellTiter-Glo ATP luminescence, 48 h; reference of the scale not given here; actives 0.17% (n = 300,000);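 active = replicate mean above 50%; inconclusive = above 50% but judged a plate artefact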;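 also: 50 nL library stock added to about 25 µL; numbers are from one replicate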
RN4220 kill – kills Staphylococcus aureus RN4220 | S. aureus RN4220 growth, OD600, 16 h | inhibition, % (test concentration not listed) | actives 0.33% (n = 330,000) | AID 1259311;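 active = z-score of -3 or lower and OD600 up to 0.18 on both plates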;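 also: plate controls were untreated cells for no effect and reference antibiotic for full effect; stock transfer was 100 nL into about 80 µL; one replicate is shown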
Sa ugtP lethal – growth inhibition of S. aureus ugtP deletion strain; S. aureus RN4220 ugtP deletion, OD600 growth, 16 h; some inactives read as strong as hits; growth inhibition, % (test concentration not listed); actives 0.54% (n = 330,000);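 active = z-score under -3 and OD600 up to 0.15 on both plates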;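 also: plate controls were untreated wells for no effect and antibiotic for full effect; wells of about 80 µL received 100 nL stock; the first replicate is given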
Autofluor counter – flagged as autofluorescent in microsphere protease counterscreen; compound autofluorescence counterscreen, microsphere flow cytometry; active compounds read high; fluorescence intensity (no concentration beside the values); actives 3.1% (n = 360,000); AID 624483;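 active = at least 3 SD above the mean of all compounds, about 16000 in these data; inconclusive = too few beads counted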;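 also: 100 nL of 1 mM stock went into each well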
Mtb hypoxia inh growth – further read-out of Mtb hypoxia inh, marked with its call; growth inhibition, %; measured here: M. tuberculosis growth (absorbance);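 0% = vehicle and 100% = reference antibiotic; read after six days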
Numbers without * were called inactive; ? = inconclusive; . = no result given.

canonical_smiles,PrP 5UTR inh,Mtb hypoxia inh,Mtb hypoxia inh growth,BJeLR viability,RN4220 kill,Sa ugtP lethal,Autofluor counter
CCN1CCN(CC(=O)c2c[nH]c3ccc(C)cc23)CC1,-20,3,0,3,1.1,0,9143
O=C(CN1CCN(c2ccccn2)CC1)Nc1ccc(OC(F)(F)F)cc1,-5,-6,-4,1,-1.3,1,3977
COCCNC(=O)C(C)OC(=O)c1nsc(Cl)c1Cl (centres undefined),5,9,7,-6,5.4,6,6635
Cc1sc2nc(C(C)C)oc(=O)c2c1C,-3,.,.,6,3.4,1,4313
O=C(CSc1nc2c(c(C(F)(F)F)n1)CCc1ccccc1-2)NCc1ccccc1,-11,-4,2,-25,-2.8,7,3016
CCOC1OC(C(=O)NC2CC2)=CC(c2ccc(C(F)(F)F)cc2)C1CCCO (centres undefined),.,-3,2,.,-3.2,-6,.
O=C(NCCN1C(=O)S/C(=C\c2ccc(Cl)c(Cl)c2)C1=O)c1ccc2c(c1)C(=O)N(Cc1ccncc1)C2=O,-13,.,.,-12,.,.,2460
O=C(CSCc1cccc(Br)c1)NC1CC1,-16,7,4,8,2.1,4,2417
CCOC(=O)C1CCN(C/C=C/c2ccccc2OC)CC1,-17,5,1,1,3.3,9,10203
OC1(c2ccc(Cl)cc2)CCN(Cc2c[nH]c3ccccc23)CC1,-18,3,15,7,-0.5,-20,5426
CCc1nc(SCC(=O)Nc2ccc(F)cc2F)c2c(=O)n(C)c(=O)n(C)c2n1,-18,1,1,4,2.7,3,5878
c1ccc(SCCc2ccncc2)cc1,-60,.,.,-5,5.4,-12,5109
O=C1CCCN1C(=O)COc1ccccc1[N+](=O)[O-],-14,3,-4,-4,6.1,13,3835
O=C(CCN1C(=O)C2CC=CCC2C1=O)Nc1nccs1 (centres undefined),-22,11,-4,5,4.0,7,5658
CC(C)(C)C1(CCO)C(=O)NC(=S)NC1=O,-2,6,9,.,1.1,1,3782
COc1ccc(S(=O)(=O)N2CCc3ccccc32)cc1NC(C)=O,-9,6,2,4,2.4,0,4392
COc1ccc(N2C3=C(C(=O)CC(C)(C)C3)C(c3cnn(C)c3)C3=C2CC(C)(C)CC3=O)cc1,-11,0,5,4,2.5,3,4190
COc1ccc(OC)c(CCNC(=O)CCn2ccc3cc(S(=O)(=O)N4CCCC4)ccc32)c1,-10,11,6,-10,-0.9,1,5051
CCC(C#CCN1CCOCC1)(CC)OCCC#N,-18,4,11,11,-6.0,-4,3004
Cc1csc(SCC(=O)Nc2ccc3[nH]c(=O)[nH]c3c2)n1,-32,6,7,.,4.7,-5,3368
CCCCN(C)C(=O)c1cc2cc3cc(OC)ccc3nc2o1,-32,20,12,-10,2.7,4,2122
O=C(c1ccccc1Br)N1CCc2c([nH]c3ccccc23)C1,-2,2,-1,-4,3.8,-6,3875
CC(C)(C)OC(=O)NCCCCCNC(=O)c1nc[nH]c1C(=O)NCC(=O)OCc1ccccc1,16,7,8,.,3.7,-8,3069
CCOc1ccccc1NC(=O)COC(=O)c1ccc2ccccc2n1,-12,5,-6,.,4.9,8,6617

Three structures out of the list, arranged by count of non-hydrogen atoms, high to low:
canonical_smiles,PrP 5UTR inh,Mtb hypoxia inh,Mtb hypoxia inh growth,BJeLR viability,RN4220 kill,Sa ugtP lethal,Autofluor counter
COc1ccc(OC)c(CCNC(=O)CCn2ccc3cc(S(=O)(=O)N4CCCC4)ccc32)c1,-10,11,6,-10,-0.9,1,5051
CCCCN(C)C(=O)c1cc2cc3cc(OC)ccc3nc2o1,-32,20,12,-10,2.7,4,2122
CCC(C#CCN1CCOCC1)(CC)OCCC#N,-18,4,11,11,-6.0,-4,3004

Continuation.
canonical_smiles,PrP 5UTR inh,Mtb hypoxia inh,Mtb hypoxia inh growth,BJeLR viability,RN4220 kill,Sa ugtP lethal,Autofluor counter
Cc1cccc(-c2nc(=S)c3c(n2Cc2ccco2)CCCC3)c1,-5,8,2,-12,1.8,42,22703*
CC(=O)c1ccc(S(=O)(=O)N(C)CCCC(=O)N(C)Cc2c(F)cccc2Cl)cc1,15,3,2,-7,4.9,11,4468
CCN(CC)C(=O)C(Cc1ccccc1)N1C(=O)c2ccccc2C1=O (centres undefined),-6,.,.,7,3.3,-5,2823
CSc1nc(C(=O)N2CCCC(Nc3ccc(C)c(C)c3)C2)cs1 (centres undefined),-8,-7,12,-4,1.5,-7,6264
c1cc(-c2noc(CCC3CCCC3)n2)ccn1,-71,.,.,1,6.4,7,3973
O=c1[nH]c(=O)n(CCC2=CCCCC2)c(O)c1C=NCCCn1ccnc1,-8,-5,4,8,8.0,-4,3431
CC(C)Cn1c(N)c(C(=O)COC(=O)C2=COCCO2)c(=O)n(C)c1=O,-11,-54,20,-4,5.0,-3,7024
CC(=O)NC(CC(=O)NCc1ccncc1)c1ccccc1 (centres undefined),-29,13,5,-2,3.6,0,5044
O=c1ccc(C(F)(F)F)cn1Cc1cc(=O)n2ccsc2n1,-23,7,0,1,4.3,5,3305
Cc1ccc(-n2nc3c(=O)n(C(C)C(=O)NCCc4cccs4)nc(C)c3c2C)cc1 (centres undefined),-15,4,4,2,-6.1,15,5915
Cc1nn(C)c(C)c1S(=O)(=O)N(CC(=O)Nc1ccc2c(c1)OCO2)c1ccc(C(C)C)cc1,-6,5,6,.,9.2,16,5146
Fc1cccc(Nc2ncnc3[nH]ncc23)c1,-16,12,3,7,4.5,8,4793
CC(C)(C)NC(=O)CCc1ncc(C(F)(F)F)cc1Cl,8,12,10,3,2.6,10,2008
O=C(N/N=C/c1ccccn1)c1cc(C2CC2)[nH]n1,-36,.,.,3,.,.,2554
O=C(O)c1cccc(S(=O)(=O)N(Cc2ccccc2)c2ccccc2)c1,-19,16,5,0,14,6,4143
CCCCOc1nc2ccccc2nc1NS(=O)(=O)c1ccc(F)cc1,-19,-7,1,3,9.6,-17,3919
CCCCC(CC)C(=O)Nc1ccc(C)c(O)c1 (centres undefined),-25,-7,-3,-3,0.4,-3,4031
COc1ccc(-c2csc(N3CCC(C(N)=O)(N4CCCCC4)CC3)n2)cc1,-4,-1,3,3,-2.8,11,10638
CCOC(=O)C1CCN(C(=O)COc2ccc(N(C)S(=O)(=O)c3cccs3)cc2)CC1,-13,13,8,2,-10,-13,3047
O=C(CSc1nnc(Nc2ccccc2F)s1)Nc1cccc(S(=O)(=O)N2CCCCC2)c1,-30,5,5,14,18,71,9511
CCN(CC)c1ccc(C=NNC(=O)c2ccco2)c(O)c1,.,14,-12,.,-9.0,16,.
Cc1cc(=O)oc(C)c1C(=O)Nc1c(C)n(C)n(-c2ccccc2)c1=O,-12,.,.,1,0.9,13,3990
CCn1c(SCC(=O)Nc2ccc3c(c2)OCO3)nc2c(c1=O)SC(C)C2 (centres undefined),-73,2,0,5,-5.0,-6,5741
COc1ccc(C(=O)Nc2cccc(C(C)=O)c2)cc1S(=O)(=O)N1CCOCC1,-12,7,13,3,5.4,0,?
O=C(CSc1ccc(S(=O)(=O)N2CCCCC2)cn1)Nc1ccccc1Br,-6,4,7,.,3.4,0,8250
O=c1nc2ccccc2c(NS(=O)(=O)c2ccc(Cl)cc2)n1-c1ccccc1,-9,.,.,-2,7.9,7,3016
Clc1ccc(Cn2c(CN3CCCC3)nc3ccccc32)cc1,.,-4,0,3,1.2,-6,.
CC(=O)Nc1ccc(S(=O)(=O)NCC(=O)OCc2ccccc2)cc1,-50,6,7,2,3.4,10,2385
Cc1c(C(=O)O/N=C(\N)c2ccccn2)cccc1[N+](=O)[O-],-7,-2,-1,5,1.7,1,6073
Cc1ccc(-n2c(C)cc(C)c(C#N)c2=O)cc1C,-3,9,5,2,7.1,11,2258
O=C(O)CCN1CCc2ccccc2C1c1cccs1 (centres undefined),-18,6,5,-6,3.1,-4,2198
COc1ccc(N(CC(=O)NCCSc2ccccc2)S(=O)(=O)c2ccccc2)c(OC)c1,-3,5,3,.,0.8,-5,3735
c1ccc(Nc2nc(N3CCCCC3)nc(N3CCCCC3)n2)cc1,-23,7,8,10,1.4,48,4303
CC1CC2=C(CC1C=NNC(N)=S)C(C)(C)CCC2 (centres undefined),.,22,15,.,-3.1,-20,.
COc1cc(CC(NC(C)=O)C(=O)NC2CCN(C(=O)Nc3ccccc3Cl)CC2)cc(OC)c1 (centres undefined),-19,-2,1,12,3.6,0,4196
O=C(Nc1ccc(Cl)c(C(F)(F)F)c1)[C@@H]1CC=C[C@@H]2CCN(C3CC3)C(=O)[C@@H]21,-1,.,.,4,.,.,3866
COC(=O)c1ccc2c(=O)n(-c3ccc(OC)cc3)c(=S)[nH]c2c1,-26,-6,-11,-2,36,4,4365
O=C(N1CCOCC1)N1CCN(c2ccccn2)CC1,-14,9,10,-5,-13,-6,2517
CN(C)CCCN(Cc1ccccc1)C(=S)Nc1ccc(SC(F)F)cc1,-19,9,12,-2,-0.1,3,4712
CN1C(=O)[C@H]2[C@@H](C3CC3)N3C(=O)CN(CC4CC4)C(=O)[C@@]3(C)[C@H]2C1=O,-7,.,.,-12,.,.,4080
CC(C)CCNC(=O)c1onc(CSc2ccncc2)c1C(=O)NCCC(C)C,-16,7,15,-2,7.0,3,3962
CCc1c(C)n([O-])c2c([n+]1=O)CCC2,-6,.,.,9,1.3,0,4395
COc1ccc(Cl)cc1N1C(=O)C2CCCN2C1c1sccc1C (centres undefined),-24,7,1,-4,1.6,3,10501
O=C(CCNS(=O)(=O)c1ccccc1C(F)(F)F)N1CCN(c2ccccc2O)CC1,-28,0,0,-10,2.2,-2,5819
CC(=NN1CC(=O)NC1=O)c1ccc([N+](=O)[O-])o1,-30,16,11,.,24,72,3958
O=C(Nc1ccccc1N1CCCCC1)c1ccc(Cl)c([N+](=O)[O-])c1,-17,6,12,1,-4.7,11,3615
COc1cccc(C(C(=O)NC2CCCC2)N(Cc2ccc(C)cc2)C(=O)c2ccco2)c1OC (centres undefined),-2,1,0,12,3.6,2,3447
CC(=O)CCC(=O)OCC(=O)c1ccc(C(F)(F)F)cc1,-15,-11,-8,10,-0.3,-4,6082
CCOC(=O)CCNC(=O)N1CCCC(CNS(=O)(=O)Cc2ccccc2)C1 (centres undefined),-23,3,8,2,3.8,17,4692
CN1C(=O)[C@H]2[C@@H](/C=C/c3ccccc3)N3C(=O)CN(CCO)C(=O)[C@@]3(C)[C@H]2C1=O,-6,.,.,0,.,.,2974
COc1ccc(C(=O)c2oc3ccc(OC)cc3c2NC(C)=O)cc1,-15,-5,5,-3,1.1,2,4388
c1ccc(-c2nc3nc4ccccc4nc3n2CC2CCCO2)cc1 (centres undefined),-37,9,10,-4,2.2,4,4262
O=C(NCCCO)c1cc2c(cn1)[nH]c1ccccc12,-44,2,7,-5,0.9,-7,3975
CCc1cc2c(SCC(=O)N(CC)c3c(N)n(Cc4ccccc4)c(=O)[nH]c3=O)ncnc2s1,-22,1,16,-3,-1.2,6,4240
Cc1noc(C)c1CSc1nc2ccccc2c(=O)n1-c1ccc(Cl)cc1,-24,-10,10,-5,-3.2,44,22121*
COc1cccc(NC(=O)c2ccc3c(c2)OCCO3)c1,-11,-1,10,34,2.2,6,5488

Next entries follow.
canonical_smiles,PrP 5UTR inh,Mtb hypoxia inh,Mtb hypoxia inh growth,BJeLR viability,RN4220 kill,Sa ugtP lethal,Autofluor counter
Cc1ccc(S(=O)(=O)N2CCC(C(=O)N[C@@H](C)C(=O)NCc3ccccc3)CC2)cc1,-8,-3,9,-5,-0.2,2,8909
CC1=NCCc2c1[nH]c1ccccc21,-16,.,.,4,-0.5,-3,5143
N/C(=N/OC(=O)c1ccccc1Cl)c1nonc1N,-45,.,.,2,.,.,3730
N#Cc1ccc(C=CC(=O)c2ccco2)cc1,.,14,14,.,5.7,-1,.
CCCCn1ccnc1C(=O)c1ccc(S(=O)(=O)N(CCOC)CCOC)cc1,-8,.,.,-13,-0.2,2,4806
CCC(c1nnnn1Cc1ccco1)N(CCN1CCOCC1)Cc1cc2cc(C)ccc2[nH]c1=O (centres undefined),0,.,.,-8,0.9,3,4766
O=C(N/N=C/c1ccsc1)c1cc(-c2cccs2)nc2ccccc12,-14,.,.,0,.,.,2310
O=C(O)Cc1sc(-c2ccccc2Cl)nc1-c1ccccc1,-33,0,5,-2,12,-10,2106
